# GIRK2 act = GIRK2 channel activation; calls only for hits at 25 µM; P48051; 0.05% of 63,000 active; HEK293-GIRK2 thallium flux, Thallos fluorescence;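 active = among the strongest 0.2% of first-round signals and kept after retests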;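 also: first round at about 10 µM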
# Target sequence (P48051 whole entry, looked up): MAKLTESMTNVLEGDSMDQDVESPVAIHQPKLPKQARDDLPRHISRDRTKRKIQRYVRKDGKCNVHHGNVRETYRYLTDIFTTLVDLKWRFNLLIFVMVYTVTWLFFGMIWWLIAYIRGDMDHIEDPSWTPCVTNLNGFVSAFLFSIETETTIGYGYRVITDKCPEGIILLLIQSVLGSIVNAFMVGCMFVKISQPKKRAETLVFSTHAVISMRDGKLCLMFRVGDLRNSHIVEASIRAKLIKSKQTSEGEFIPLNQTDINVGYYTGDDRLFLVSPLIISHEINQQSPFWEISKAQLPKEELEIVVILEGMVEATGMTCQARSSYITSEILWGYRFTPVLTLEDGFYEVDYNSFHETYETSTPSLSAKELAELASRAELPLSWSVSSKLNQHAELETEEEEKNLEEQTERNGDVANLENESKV
# Calls only; i = inactive. Not all compounds are listed (hit frequency here may not be typical).
SMILES,GIRK2 act
CCCc1nnsc1C(=O)N1CCc2nc(NC(=O)c3ccoc3)sc2C1,i
O=C(CN1CCC(Cn2c(C(F)(F)F)nc3ccccc32)CC1)N1CCc2ccccc21,i
CC1=C(C(=O)Nc2ccccc2C)C(/C(C)=C/c2ccccc2)n2ncnc2N1 (centres undefined),i
CCC(C(=O)N1CCN(CCn2ccnc2-c2ccccc2)CC1)c1ccccc1 (centres undefined),i
CCOC(=O)CCC(=O)Nc1ccc(CC(=O)NC)cc1,i
C=CCn1c(SCC(=O)NCC2CCCO2)nc2sc(C)c(C)c2c1=O (centres undefined),i
CSc1ccc(-c2noc(CSc3nccn3-c3ccccc3)n2)cc1,i
COc1ccc(-n2nnc(C(=O)Nc3ccc(F)c(C(F)(F)F)c3)n2)cc1,i
Cc1ccccc1NC(=O)NCC(O)c1sccc1C (centres undefined),i
CCOc1ccc(CN2CC(c3nc(C)no3)C2)cc1,i
CCOC(=O)c1ccc(N2C(=O)C(O)=C(S(=O)(=O)c3ccccc3)C2c2ccccc2)cc1 (centres undefined),i
CSc1ccc(-c2noc(-c3nn(-c4ccccc4)ccc3=O)n2)cc1,i
O=c1[nH]c2nc(NC3CCc4ccccc43)ncc2c(=O)n1C1CCCC1 (centres undefined),i
COc1ccc(C)c2sc(N(CCCn3ccnc3)C(=O)c3ccco3)nc12,i
COc1ccc(-c2cc3c(=O)n(CC(=O)Nc4ccc(Br)cc4F)ccn3n2)cc1,i
COc1cccc2cc(C(=O)N3CCc4nc(NC(=O)c5cnccn5)sc4C3)c(=O)oc12,i
CC1=C(C(=O)Nc2ccccc2)C(c2ccc(OC(F)F)cc2)n2ncnc2N1 (centres undefined),i
O=C(CN1CCN(Cc2nc3ccccc3[nH]2)CC1)Nc1nccs1,i
O=C(Cn1nc(-n2cccn2)ccc1=O)N1CCN(c2ccc(C(F)(F)F)cn2)CC1,i
CC1CC2=C(CC3C(C)(CCC4C(C)(C)C5OC5C(=O)C34C)O2)C(=O)O1 (centres undefined),i
Cc1c(NC(=O)Cn2nc(-n3cccn3)ccc2=O)c(=O)n(-c2ccccc2)n1C,i
COc1ccc(CCNC(=O)CC2CCCCN2S(=O)(=O)c2ccc(OC)cc2)cc1 (centres undefined),i
CC1CCN(S(=O)(=O)c2nn(C)cc2C(=O)NCc2ccc(OC(C)C)cc2)CC1,i
O=C(Nc1nccs1)C1CCN(C(=O)c2ccc(Cn3ccnc3)cc2)CC1,i
O=C(CCc1ccccc1)N1CCc2cc(S(=O)(=O)N3CCOCC3)ccc21,i
O=C(CSc1nc(-c2cccc([N+](=O)[O-])c2)cs1)NCc1ccco1,i
CN(C)C(CNC(=O)C(=O)NCCC1=CCCCC1)c1ccccc1Cl (centres undefined),i
CS(=O)(=O)c1ccc(Nc2nc(C(=O)NCc3ccncc3)cs2)cc1,i
O=C(CSc1nc2cc3c(cc2c(=O)n1Cc1ccco1)OCO3)Nc1ncn[nH]1,i
CN(C)CCN(C(=O)c1c[nH]c2ccccc12)c1nc2ccc(OC(F)(F)F)cc2s1,i

# An excerpt from the list above, for reference:
SMILES,GIRK2 act
CSc1ccc(-c2noc(-c3nn(-c4ccccc4)ccc3=O)n2)cc1,i
O=c1[nH]c2nc(NC3CCc4ccccc43)ncc2c(=O)n1C1CCCC1 (centres undefined),i

# The results go on:
SMILES,GIRK2 act
CCOCCn1c(=O)c2c(nc3n2CCCN3C2CCCCC2)n(C)c1=O,i
CCOc1ccccc1C(=O)Nn1cnc2c(cnn2-c2cccc(Cl)c2)c1=O,i
O=C(CSc1ccc(F)cc1)NCC1(c2ccccc2)CCOCC1,i
COc1ccccc1OCC#CCNC(=O)c1ccccc1C(F)(F)F,i
CCSc1ccccc1C(=O)Nc1c2c(nn1CC(=O)NCC1CCCO1)CSC2 (centres undefined),i
Cc1ccc(N2CC(C)Cn3c2nc2c3c(=O)n(CCCO)c(=O)n2C)cc1 (centres undefined),i
CCCCCCCCCCCCC/C=C/[C@@H](O)[C@H](CO)N(C)C,i
COc1ccccc1CNC(=O)C1=Cc2cc(C)ccc2OC=C1,i
COc1ccc(-c2cc3c(SCC(=O)Nc4cc(OC)ccc4OC)nccn3n2)cc1,i
Cc1c(Cl)cccc1NC(=O)Cn1c(=O)n(CCCCC(=O)NC(C)C)c(=O)c2ccccc21,i
O=C1COc2ccccc2N1Cc1nc(-c2ccccc2OCc2ccccc2)no1,i
CCOC(=O)NCC(O)c1ccc2c(c1)CCO2 (centres undefined),i
O=C(NCCCS(=O)(=O)N1CCN(c2ccccc2)CC1)c1ccc2c(c1)OCO2,i
COCCNC(=O)N1CCC(c2ccc(OC)cc2)C1 (centres undefined),i
O=C(c1ccc(F)cc1)C1CCN(CCn2c(=S)[nH]c3ccccc3c2=O)CC1,i
Cc1ccc(-c2ccc(N3CCCC(C(=O)NCC(C)C)C3)nn2)cc1C (centres undefined),i
O=C(CC1CCCCC1)NC1CCN(C(=O)c2cn(-c3ccc(F)cc3)nn2)CC1,i
C=CCNC(=O)c1c(N)n(-c2ccccc2OC)c2nc3ccccc3nc12,i
CCN1CCN(c2nc(-c3cccnc3)nc3ccccc23)CC1,i
O=C(CCS(=O)(=O)c1ccccc1)N(CCN1CCOCC1)c1nc2ccc(F)cc2s1,i
O=C(c1cc(-c2ccco2)on1)N(Cc1ccsc1)Cc1ccccn1,i
COc1ccc(C2(CNC(=O)CN3C(=O)c4ccccc4C3=O)CCOCC2)cc1,i
O=C(c1c[nH]c2ccc(F)cc2c1=O)N1CCCc2ccccc21,i
CN(C)c1cccc(C(=O)NCCC(O)c2ccc3c(c2)OCO3)c1 (centres undefined),i
COc1ccc2c(c1)c(CC(=O)Nc1ccc(C(N)=O)cc1)c(C)n2C(=O)c1ccc(Cl)cc1,i
COc1ccc(Oc2cnc(N)nc2-c2ccc(OC)cc2O)cc1,i
NC(=O)c1ccccc1OCC#CCNC(=O)Cc1ccc(F)cc1,i
O=C(O)CCCCCC[C@@H]1[C@@H](CC[C@@H](O)CCc2cccc(C(F)(F)F)c2)[C@H](O)C[C@@H]1O,i
Cc1nc2ccccn2c1C(=O)NCC(c1ccc2c(c1)CCO2)N(C)C (centres undefined),i
O=C(NCc1nc2ccccc2[nH]1)C1CCN(C(=O)NCc2cccs2)CC1,i
COc1ccc(-c2nc(CSc3nc4c(c(=O)[nH]3)CN(Cc3ccc(F)cc3)CC4)c(C)o2)cc1,i
COc1cccc(N2CCN(S(=O)(=O)C3CC3)CC2)c1,i
Cc1c(-c2ccc(Cl)cc2)nn2c1NC(=O)C2CC(=O)Nc1ccc2c(c1)OCCO2 (centres undefined),i
COCCn1c(=O)c2c(nc(-n3nc(C)cc3C)n2CC(C)C)n(C)c1=O,i
Cc1ccc(-c2noc(Cn3cnc4c(nnn4Cc4ccccc4C)c3=O)n2)cc1C,i
Cc1nn(C)cc1C(=O)N(Cc1ccccc1)c1ccccn1,i
Cc1ccc(Cn2cc(-c3noc(-c4ccc(N(C)C)cc4)n3)nn2)cc1,i
CCOc1cc(/C=C(\C#N)c2nc(C3CC3)cs2)ccc1OC(C)C,i
CCN(CC)CCCN1C(=O)C(O)=C(C(=O)c2sc(C)nc2C)C1c1ccccc1 (centres undefined),i
CCC(=O)NCCNc1cc(Nc2ccccn2)ncn1,i
Cc1cccc(-c2nnc(NC(=O)c3cccc(S(C)(=O)=O)c3)o2)n1,i
Cc1noc(C)c1S(=O)(=O)N1CCCC(COCc2ccccc2)C1 (centres undefined),i
CC12CC(c3ccccc3O1)C(C(=O)Nc1cccc(C(F)(F)F)c1)C(=O)N2CCO (centres undefined),i
Cc1ccc(C)n1CCCC(=O)Nc1cccc2nsnc12,i
O=C(Nc1nc2c(s1)COCC2)c1ccc(OC(F)(F)F)cc1,i
O=C(Cn1ccc2ccccc21)N1CC(c2nc(-c3cccc(Cl)c3)no2)C1,i
COc1cccc(CNC(=O)Cn2ccn3nc(-c4ccc(C)cc4)cc3c2=O)c1,i
Cc1cc(=O)n2c(-c3ccc(NC(=O)Nc4ccc5c(c4)OCO5)cc3)csc2n1,i
O=S(=O)(c1c(F)cccc1F)N1CCC2(CC1)OCCS2,i
N#Cc1ccc(C(=O)NCCCCN2CCCC2)cc1,i
COC(=O)c1cccc(Nc2ncnc3c2c(C)c(C)n3Cc2ccco2)c1,i
O=C(CN1CC(c2nc(C3CC3)no2)C1)Nc1cccnc1,i
O=C(c1ccc(Br)o1)N1CCN(c2nc3ccc(OC(F)(F)F)cc3s2)CC1,i
Cn1c(NCCc2ccccc2)nc2c1c(=O)n(Cc1ccccc1)c(=O)n2C,i
Cc1nnc(NC(=O)C2CCN(c3ccc(-c4cccs4)nn3)CC2)s1,i
O=C(NCC(O)c1ccoc1)c1cccc(C(F)(F)F)c1 (centres undefined),i
O=C(CC1CCCC1)Nc1cc(C2CC2)nn1-c1nc(-c2ccccc2)cc(=O)[nH]1,i
CCC(C(=O)N1CC(c2nc3ccccc3[nH]2)C1)c1ccccc1 (centres undefined),i
CCOC(=O)Cn1c(=O)c2c(nc3n(-c4ccc(C)cc4)c(C)c(C)n23)n(C)c1=O,i
Cc1csc(C(=O)NCC(C)(O)c2ccco2)c1 (centres undefined),i

# New compounds follow
SMILES,GIRK2 act
CC(C)c1ccccc1NC(=O)Cc1csc(Nc2ncccn2)n1,i
COc1cc(-c2nnc(NC(=O)c3ccc(C(C)=O)cc3)o2)cc(OC)c1OC,i
Cc1cc(C)c(S(=O)(=O)NC(C)C)cc1N(C)S(=O)(=O)c1ccccc1,i
Cc1ccc(NC(=O)CSc2nc3c(-c4ccccc4)csc3c(=O)n2C)c(C)c1,i
CCOc1ccc2cccc(NC(=O)c3cc(-c4ccccc4)on3)c2n1,i
CCOCCCn1c(C)c(C)n2c3c(=O)n(Cc4ccccc4C)c(=O)n(C)c3nc12,i
COc1cc(NC(=O)CSc2ncc(-c3ccc(Cl)cc3)o2)cc(OC)c1OC,i
O=C(COc1cccc2ccccc12)Nc1cc(-n2cccn2)ncn1,i
N#Cc1nc(-c2ccc(COc3ccc(Cl)cc3)o2)oc1NC1CC1,i
CC(=O)c1ccc(NC(=O)Cn2c(-c3ccccn3)nc3ccccc32)cc1,i
Cc1cn2c3c(=O)n(CCC(C)C)c(=O)n(C)c3nc2n1Cc1ccccc1,i
COc1ccc(-c2cnc(SCC(=O)N3CCCC3)n2-c2ccccc2)cc1,i
COc1ccc(F)cc1S(=O)(=O)N1CCC2(CC1)OCCS2,i
Cc1nc(C)c(CC(=O)NCC2CCS(=O)(=O)C2)s1 (centres undefined),i
CC(=O)N1N=C(c2ccccc2NS(C)(=O)=O)CC1c1cn(-c2ccccc2)nc1C (centres undefined),i

# Sorted by length of the SMILES (lowest first): part of the list above.
SMILES,GIRK2 act
O=C(COc1cccc2ccccc12)Nc1cc(-n2cccn2)ncn1,i
Cc1cn2c3c(=O)n(CCC(C)C)c(=O)n(C)c3nc2n1Cc1ccccc1,i
CCOCCCn1c(C)c(C)n2c3c(=O)n(Cc4ccccc4C)c(=O)n(C)c3nc12,i

# Next section:
SMILES,GIRK2 act
O=C(Cn1nc(-n2cccn2)ccc1=O)NCCc1c[nH]c2ccccc12,i
COc1ccc(CNC(=O)Nc2ccc3c(c2)N(CC(C)C)C(=O)C(C)(C)CO3)cc1OC,i
Cn1c(CN2CCN(C(=O)C3CCN(S(C)(=O)=O)CC3)CC2)nc2ccccc21,i
COc1ccccc1CNC(=O)CSc1nnc(CCc2nc3ccccc3s2)o1,i
COc1cc2nc(SCc3ccc(C#N)cc3)n3nc(CCn4nc(C)cc4C)nc3c2cc1OC,i
O=C(O)c1cn(Cc2ccc(F)cc2)nc1S(=O)(=O)N1CCCC1,i
COCCn1c(=O)c2c(nc3n(-c4ccc(OC)cc4OC)c(C)cn23)n(C)c1=O,i
CS(=O)(=O)C1CCN(C(=O)CCSc2ccccc2)CC1,i
O=C1COc2cc(O)ccc21,i
COCCn1c(C(=O)Nc2ccc(Oc3ccccc3)cc2)cc2c(=O)n(C)c(=O)n(C)c21,i
CCc1ccc(-n2nnc3c(=O)n(Cc4nc(-c5cccc(Br)c5)no4)cnc32)cc1,i
COc1ccc(NC(=O)COc2ccc(Cl)cc2)cc1N1CCCCC1=O,i
CC(C)(C)N1CC(c2nc3ccccc3n2Cc2cccc(Cl)c2)CC1=O (centres undefined),i
CSc1cccc2sc(N(Cc3ccco3)C(=O)c3cccc(S(=O)(=O)C(C)C)c3)nc12,i
COc1ccc(NC(=O)C(=O)NCC2CCN(Cc3cccs3)CC2)cc1,i

# Part of the list above, with each value named.
O=C(Cn1nc(-n2cccn2)ccc1=O)NCCc1c[nH]c2ccccc12
- GIRK2 act: i

COc1ccc(CNC(=O)Nc2ccc3c(c2)N(CC(C)C)C(=O)C(C)(C)CO3)cc1OC
- GIRK2 act: i

Cn1c(CN2CCN(C(=O)C3CCN(S(C)(=O)=O)CC3)CC2)nc2ccccc21
- GIRK2 act: i

COc1ccccc1CNC(=O)CSc1nnc(CCc2nc3ccccc3s2)o1
- GIRK2 act: i

# Four entries from above, as labelled records:
compound: O=C(O)c1cn(Cc2ccc(F)cc2)nc1S(=O)(=O)N1CCCC1
  GIRK2 act: i

compound: CS(=O)(=O)C1CCN(C(=O)CCSc2ccccc2)CC1
  GIRK2 act: i

compound: COc1ccc(CNC(=O)Nc2ccc3c(c2)N(CC(C)C)C(=O)C(C)(C)CO3)cc1OC
  GIRK2 act: i

compound: COc1ccc(NC(=O)COc2ccc(Cl)cc2)cc1N1CCCCC1=O
  GIRK2 act: i

# (list continues)
SMILES,GIRK2 act
Cc1ccc(Cl)cc1NC(=O)Cn1nc2c(N3CCCC(C)C3)nccn2c1=O (centres undefined),i
Cc1cc(NC(=O)C2CCN(C(=O)/C=C/c3ccco3)CC2)no1,i
CC(=O)c1ccc(NC(=O)CSc2ncnc3nc(C)ncc23)cc1,i
CCOc1ccc(NC(=O)Nc2cccc(C(C)=O)c2)cc1,i
O=C(NCCn1cnc(-c2ccccc2)cc1=O)c1ccc(=O)[nH]n1,i
COc1cccc(C(=O)N2CCN(c3oc(-c4ccccc4)nc3C#N)CC2)c1,i
O=C(Nc1cccc2ccc(-n3cccc3)nc12)c1c(F)cccc1Cl,i
O=C(NCCc1nc(C2CC2)cc(C(F)(F)F)n1)c1cccc(Br)c1,i
CCOc1ccccc1-c1noc(Cn2c(=O)n(CCc3ccccc3)c(=O)c3ccccc32)n1,i

# Compound activity deposited in PubChem by Vanderbilt University.
